NS1 inh: influenza NS1 inhibition; actives 0.4% (n = 270,000); S. cerevisiae slowed by influenza A NS1, growth recovery by OD600; Potency, µM (series often up to 46.1 µM), inactives show top-dose activity, positive = more growth; AID 2326; active means well fitted rising curve with a large enough effect; inconclusive means small, poorly fitted or top-dose-only effect; inactive means no such curve, though single readings can be large or run the other way; also: nearly all actives have a fitted effect of over 50% in size
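S. cerevisiae expressing influenza A NS1, grown in glucose, washed, then diluted 1:100 into pH 6.0 -URA galactose medium with 23 nl compound. Growth recovery read as OD600; NS1-free strain serves as control.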
Marburg entry inh: inhibitors of Marburg virus binding or cell entry; Potency, µM (top dose mostly 37.8 µM), for inactives: top-dose activity change, negative = inhibition, usual class: inhibitors; Marburg virus pseudotyped entry inhibition, cell reporter; control for the full effect not named in the record; about a third of the inactives were read at about 46 µM; actives 1.8% (n = 300,000); active = well fitted inhibition curve with a large enough effect; inconclusive = small, poorly fitted or top-dose-only effect, or effect the other way; inactive = flat fitted curve, though single readings scatter; tested in HEK293 cells; about a fifth of its hits are not listed in these tables; also: % is scaled to controls: 0 for no effect and ±100 for the full control effect; luciferase read-out
Lassa entry inh: inhibitors of Lassa virus binding or cell entry; AID 540256; Lassa virus pseudotype entry inhibition, cell reporter; control for the full effect not named in the record; actives 1.2% (n = 300,000); Potency, µM (top dose mostly 37.9 µM), for the others: at the highest dose activity change, negative = inhibition, usual class: inhibitors; active means well fitted inhibition curve with a large enough effect; inconclusive means small, poorly fitted or top-dose-only effect, or effect the other way; inactive means flat fitted curve, though single readings scatter; tested in HEK293 cells; also: % is scaled to controls: 0 for no effect and ±100 for the full control effect; nearly all actives have a fitted effect of over 50% in size; luciferase read-out
RE007 growth inh: less growth of the S. pombe RE007 Vpr strain; S. pombe RE007 Vpr strain, BacTiter-Glo ATP luminescence, 24 h; control for the full effect not named in the record; Potency, µM (top dose mostly 92.2 µM), inactives show at the top dose activity change, negative = less growth; actives 0.21% (n = 360,000); active = well fitted falling curve with a large enough effect; inconclusive = small, poorly fitted or top-dose-only effect; inactive = no such curve, though single readings can be large or run the other way;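 also: % is scaled to controls: 0 for no effect and ±100 for the full control effect; nearly all actives have a fitted effect of over 50% in size; the assay follows cell death caused by Vpr and the record does not say whether a fall means rescue or toxicity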
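Fission yeast strain RE007, carrying one chromosomally integrated HIV-1 vpr copy, was seeded at OD 0.01 in PMG+AL medium with 23 nL pinned compound. After 24 h at 30 °C and 99% humidity, viability was read by BacTiter-Glo luminescence.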
2A StopGo: lowers the luciferase signal of an FMDV 2A StopGo reporter; human cells with a luciferase reporter of 2A StopGo recoding; control for the full effect not named in the record; Potency, µM (doses to about 57.9 µM), without a hit: at the highest dose signal change, negative = less light; actives 1.2% (n = 410,000); AID 1159524; active = well fitted falling curve with a large enough effect; inconclusive = small, poorly fitted or top-dose-only effect; inactive = no such curve, though single readings can be large or run the other way; tested in HEK293T cells; also: % is scaled to controls: 0 for no effect and ±100 for the full control effect; nearly all actives have a fitted effect of over 45% in size; luciferase light after 4 h
SARS PLpro yeast: inhibitors of SARS-CoV papain-like protease in yeast. S. cerevisiae expressing SARS-CoV PLpro, growth rescue; control for the full effect not named in the record. Potency, µM (doses to about 32.9 µM), without a hit: at the top dose activity, positive = growth rescue. actives 0.19% (n = 330,000); active means well fitted rising curve with a large enough effect; inconclusive means small, poorly fitted or top-dose-only effect; inactive means no such curve, though single readings can be large or run the other way; also: 0% is about no effect; nearly all actives have a fitted effect of over 55% in size; growth read by luminescence after 48 h
Cruzain inh Det: cruzain (T. cruzi) inhibition with detergent | Potency, µM, for inactives: max response, negative = inhibition, most hits filed as inhibitors | purified cruzain, Z-FR-AMC fluorescence, 0.01% Triton | actives 0.43% (n = 200,000);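 also: plate controls were neutral wells for no effect and buffer without enzyme for full effect; nearly all actives have a fitted effect of over 40% in size; top concentration of the series not given in the record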
Target sequence (P25779 123-467 limits assumed): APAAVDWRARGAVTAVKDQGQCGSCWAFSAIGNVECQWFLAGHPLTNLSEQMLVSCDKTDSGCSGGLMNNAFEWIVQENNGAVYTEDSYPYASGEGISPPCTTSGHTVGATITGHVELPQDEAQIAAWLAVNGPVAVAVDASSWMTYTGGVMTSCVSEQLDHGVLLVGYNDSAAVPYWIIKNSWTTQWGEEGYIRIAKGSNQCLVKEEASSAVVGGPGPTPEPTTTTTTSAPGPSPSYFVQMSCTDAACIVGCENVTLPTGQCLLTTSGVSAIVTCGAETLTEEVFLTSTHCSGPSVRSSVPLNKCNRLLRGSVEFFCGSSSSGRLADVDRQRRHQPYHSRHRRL
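Read-out: AMC fluorescence (360 nm excitation, 450 nm emission), four reads over 2 min, first-to-third difference used. Conditions: cruzain 1.5 nM, Z-FR-AMC 2 uM, pH 5.5 acetate, 5 mM DTT, 0.01% Triton X-100.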
Cruzain noTriton: cruzain (T. cruzi) inhibition without detergent; purified cruzain, Z-FR-AMC fluorescence, no detergent; Potency, µM, for the others: max response, negative = inhibition, usual class: inhibitors; actives 2.3% (n = 200,000);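 also: plate controls were enzyme without inhibitor for no effect and buffer without enzyme for full effect; nearly all actives have a fitted effect of over 40% in size; top concentration of the series not given in the record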
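Detergent-free condition (0.00005% Triton X-100) in acetate buffer pH 5.5 with DTT. 1.5 nM enzyme and compound were pre-mixed 15 min, then 2 uM Z-FR-AMC substrate added; reaction progress from fluorescence change between first and third reads (60 s).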
* = called active by the depositor; ? = inconclusive; nt = no result given; & = joins results of further samples; [ ] = remark or other dose. Unless noted, calls follow the shape of the dose curve; as a rule, active = well fitted curve in the direction sought with a large enough effect; inconclusive = small, poorly fitted or top-dose-only effect, or another doubt; inactive = no such curve, though single readings can be large; an effect the other way counts as inactive or inconclusive. Potency is read from the fitted curve at half-maximal effect.

SMILES	NS1 inh	Marburg entry inh	Lassa entry inh	RE007 growth inh	2A StopGo	SARS PLpro yeast	Cruzain inh Det	Cruzain noTriton
O=C(O)c1ccc(S(=O)(=O)NC2CCCc3ccccc32)cc1 (centres undefined)	1%	1%	-7%	-8%	-21%	5%	1.3%	1%
Cc1ccc(C(=O)O)cc1NCc1ccncc1	-22%	13%	13%	-9%	-14%	-3%	nt	nt
O=C(NCCc1nc2ccccc2n1Cc1ccccc1F)c1ccc(F)cc1	nt	-23%[46.1 µM]	0%[46.1 µM]	nt	-8%	nt	3.2µM*	8%
COc1ccccc1CNC(=O)Cn1nnnc1CN(C)C(C)C	4%	nt	nt	-10%	15%	?	nt	nt
COc1ccccc1C1Nc2ccccc2-n2c(-c3ccccc3)c3c(=O)n(C)c(=O)n(C)c3c21 (centres undefined)	nt	?	?	nt	?	nt	-10%	?
COc1ccccc1/C=C/CN1CCC(Oc2cc(C(=O)NC3CC3)ccc2OC)CC1	3%	nt	nt	-23%	-1%	3%	nt	nt
CCOC(=O)c1ccc(Oc2nc(C)nc3c2oc2ccccc23)cc1	nt	nt	18%[46.1 µM]	nt	-25%	nt	1.0%	4%
COC(=O)Cc1c(C)c2ccc(OCc3nn[nH]n3)c(C)c2oc1=O	6%	12%	0%	3%	-5%	2%	-3.2%	13%
CC(CNC(=O)CN(C)CC(=O)Nc1ccccc1Br)c1ccccc1 (centres undefined)	nt	?	8%[46.1 µM]	10%	1%	6%	nt	nt
CCNC(=S)Nc1ccc(NC(=O)c2ccccc2O)cc1	4%	10%&10%	15%	-3%	25%	-2%	nt	nt
COc1ccc(N2CCN(C(=O)c3ccc(Nc4nc5ccccc5n5nnnc45)cc3)CC2)cc1	nt	7%[46.1 µM]	20%[46.1 µM]	nt	2%	nt	-1.4%	-1%
O=C(NCCOc1ccccc1Cl)c1ncn[nH]1	1%	27%[46.1 µM]	14%	2%	12%	0%	nt	nt
COc1ccc(NC(=O)CCOc2ccccc2)c(OC)c1	-12%	?	17%	-17%	14%	3%	0.3%	-11%
Cc1c(C(=O)N2CCN(c3ccccn3)CC2)oc2c(F)cccc12	-44%	1%[46.1 µM]	17%[46.1 µM]	-22%	6%	nt	nt	nt
c1cnc(N2CC[N+]3(CCCC3)CC2)nc1	?	11%&11%	10%	9%	9%	6%	2.2%	-2%
COc1ccc(-c2nnc3ccc(SC(C(C)=O)C(C)=O)nn23)cc1OC	-4%	-14%&0%	4%	2%	nt	13%	-3.0%	?
CC(C)NC(=O)c1ccc(COCC(F)(F)C(F)F)cc1	0%	7%	25%	13%	0%	-15%	7.9%	7%
CCN(CC)CCNC(=O)C1CCCCN1S(=O)(=O)c1cccc([N+](=O)[O-])c1 (centres undefined)	nt	0%[46.1 µM]	?	2%	-6%	1%	nt	nt
C/C(=N\NC(=O)c1ccc([N+](=O)[O-])c(C)c1)c1ccccc1Cl	-9%	6%	16%	5%	42%[activator]	-10%	-2.5%	15%
CN(C)/C=N/S(=O)(=O)c1ccc(Cl)c(Cl)c1	-2%	?	3%[46.1 µM]	-8%	40%[activator]	1%	nt	nt
Cc1ccc(OCCN2C(=O)C(=O)c3cc(C)ccc32)cc1	-2%	nt	nt	6%	-3%	-1%	nt	nt
CCOC(=O)C1=C(C)N(C)C(C)=C(C(=O)OCC)C1c1ccc(C(=O)OC)cc1	-1%	-30%	?	10%	-22%	-7%	-9.9%	?
CC1(C)Cc2c(sc(NC(=O)C(=O)NCCCN3CCOCC3)c2C(N)=O)CO1	9%	nt	nt	-8%	-10%	3%	nt	nt
Cc1cccc(NC(=O)COC(=O)c2ccc([N+](=O)[O-])o2)c1C	nt	-6%[46.1 µM]	-1%	-1%	-14%	-3%	nt	nt
CCc1ccc(NSc2ccccc2[N+](=O)[O-])cc1	5%	?	?	?	nt	-34%	-4.2%	1%

Structures shown so far containing an NH in an aromatic ring:
SMILES	NS1 inh	Marburg entry inh	Lassa entry inh	RE007 growth inh	2A StopGo	SARS PLpro yeast	Cruzain inh Det	Cruzain noTriton
COC(=O)Cc1c(C)c2ccc(OCc3nn[nH]n3)c(C)c2oc1=O	6%	12%	0%	3%	-5%	2%	-3.2%	13%
O=C(NCCOc1ccccc1Cl)c1ncn[nH]1	1%	27%[46.1 µM]	14%	2%	12%	0%	nt	nt

(more compounds)
SMILES	NS1 inh	Marburg entry inh	Lassa entry inh	RE007 growth inh	2A StopGo	SARS PLpro yeast	Cruzain inh Det	Cruzain noTriton
O=C(Nc1cccc(NC(=O)c2cncc(Br)c2)c1)c1cncc(Br)c1	18%	?	-6%	34%	?	2%	nt	nt
O=C(C1CCCN(Cc2ccccc2Br)C1)N1CCCCC1 (centres undefined)	-4%	?	0%	-9%	-8%	2%	1.3%	0%
CC1=C(C)CC(C(=O)N2CCN(C/C=C/c3ccccc3)CC2)C(C(=O)O)C1 (centres undefined)	5%	?	7%	-2%	-14%	0%	nt	nt
O=C(Nc1ccc(Br)cc1Cl)N1CCOCC1	4%	nt	nt	18%	4%	-1%	nt	nt
O=S(=O)(Cc1ccccc1)N1CCCC(c2nc(-c3ccc(F)cc3)no2)C1 (centres undefined)	-5%	-10%	-2%	8%	0%	-12%	-2.8%	7%
O=C1c2ccccc2NC(c2ccco2)N1O (centres undefined)	0%	5%	11%	-1%	20%	-4%	1.7%	-12%
CCOC(=O)C1CCCCN1Cc1ccc(OC)c(OC)c1 (centres undefined)	1%	5%[46.1 µM]	3%[46.1 µM]	-5%	-12%	1%	nt	nt
COc1ccc(S(=O)(=O)N2C3CCC2CC(NC(=O)NC2CCCCC2)C3)cc1 (centres undefined)	3%	-1%	-20%	5%	nt	-1%	3.0%	-7%
Cc1cccc(Nc2cc(C)nc3nc(Cc4ccc(Cl)cc4)nn23)c1	nt	?	?	nt	-22%	nt	-5.6%	13%
CCc1ccc(NC(=O)CSCc2nc(N)nc(Nc3ccccc3CC)n2)cc1	-7%	8%	12%	21%	?	24%	-5.8%	5%
Cc1cc(S(=O)(=O)C(CNC(=O)COc2ccccc2)c2cccs2)ccc1F (centres undefined)	nt	nt	3%[46.1 µM]	nt	-5%	nt	-4.7%	-5%
Cc1c(NC(=O)C(C)Oc2ccc(Br)cc2)c(=O)n(-c2ccccc2)n1C (centres undefined)	nt	0%[46.1 µM]	-10%[46.1 µM]	10%	30%	2%	nt	nt
Cc1ccc2c(c1)[nH]c1c(=O)n(CCN3CCNCC3)cnc12	-7%	?	2%	-13%	-4%	-2%	-2.4%	-1%
COC(Cn1cc(C)c(=O)[nH]c1=O)OC	nt	25%	10%	0%	8%	3%	nt	nt
O=C(CSc1nc(=O)n(Cc2ccco2)c2c1CCC2)NCc1ccc(F)cc1	nt	nt	2%[46.1 µM]	nt	0%	nt	-1.6%	-4%
CCn1c(CSCc2ccc(Cl)cc2)nnc1SCC(=O)Nc1cccc(C(=O)O)c1	12%	15%[46.1 µM]	?	-5%	5%	0%	nt	nt
O=C(c1ccoc1)N1CCC2(CC1)Oc1ccc(F)cc1C(=O)C21CC(c2ccccc2)=NO1 (centres undefined)	-2%	nt	nt	0%	?	-8%	nt	nt
O=C(O)CC(c1cccc2ccccc12)n1cccc1 (centres undefined)	20%	3%	?	10%	-3%	-1%	1.1%	-1%
COc1ccccc1NC(=S)NC(=O)C1CC1	-2%	?	0%	0%	28%	?	-3.2%	1%
COc1ccccc1NC(=S)N1CCN(C/C=C/c2ccccc2)CC1	-8%	1%	3%	-3%	?	-8%	-2.4%	1%
CCOc1ccc(-n2c(SCC(=O)N3CCc4ccccc43)nnc2-c2c[nH]c3ccccc23)cc1	11%	-3%	-6%	11%	-16%	15%	0.0%	-29%
CCCN1Cc2cccc(C(=O)Nc3ccc(-c4nc5ccccc5[nH]4)cc3)c2C1=O	13%	3%	9%	6%	28%	8%	-2.1%	-10%
Cc1[nH]nc2c1C(C1CC=CCC1)C(C#N)=C(N)O2 (centres undefined)	1%	-25%[46.1 µM]	-13%	0%	25µM*	-1%	-0.3%	-14%
CCOC(=O)c1noc2nc(C)n(CC(=O)Nc3ccccc3F)c(=O)c12	nt	nt	28%[46.1 µM]	nt	-4%	nt	-0.9%	5%
COc1ccccc1C1CC(=O)Oc2cc(OC)c(OC)c(OC)c21 (centres undefined)	nt	nt	nt	-18%	-18%	5%	1.1%	-2%
COc1ccc(C(C)=O)c(Oc2nc(CN3CCOCC3)nc3scc(-c4cccs4)c23)c1	-17%	1%&1%	-8%	-2%	-19%	4%	-3.1%	?
Cc1ccc2nc(N3CCN(c4ccccc4F)CC3)c(C=O)c(=O)n2c1	-1%	nt	nt	24%	-6%	0%	nt	nt
Cc1ccccc1-n1c(/C=C/c2c(C)n(C)c3ccccc23)nc2ccccc2c1=O	nt	nt	-5%[46.1 µM]	nt	-27%	nt	-2.3%	12%
COC(=O)CSc1nc(-c2ccccc2)nc2ccccc12	-25%	nt	nt	-7%	-17%	-6%	nt	nt
CCc1ccc(-c2cn3nc(C)c(C)nc3n2)cc1	7%	2.1µM*	?	-24%	-46%	0%	1.0%	4%
NCCn1c(-c2ccccc2)cc(C(=O)O)c1-c1ccccc1F	-20%	7%	-3%	-1%	-3%	2%	-1.1%	2%

From PubChem
